Menin-MLL FL inh: inhibitors of human menin-MLL interaction, wild-type MLL peptide; Fluorescence polarization, fluorescein-MLL peptide displacement from menin; FP activity change, % at 61.4 µM; AID 1766; 290,000 tested, under 10 active; inconclusive = falling polarisation curve, or a change in total fluorescence; inactive = total fluorescence flat and polarisation flat or rising; no compound was filed as active; the % refers to the polarisation; negative = inhibition;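 further: % of control where 0% means no effect; inhibitors lower the polarisation; unlabelled MLL peptide was the positive control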
Sfp inh: inhibitors of Bacillus subtilis Sfp phosphopantetheinyl transferase; Q9F4F7; Biochemical Sfp PPTase activity, qHTS; Potency, µM, for inactives: max response, negative = inhibition, actives largely listed as inhibitors; actives 3.5% (n = 310,000); AID 1490; active means well fitted inhibition curve with a large enough effect; inconclusive means small, poorly fitted or top-dose-only effect, or another doubt; inactive means no such curve, though single readings can be large or run the other way;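 further: the enzyme is Sfp with the accession as filed and its product quenches rhodamine fluorescence; potency means the concentration at half of the fitted maximal effect; 0% = enzyme reaction without inhibitor and -100% = no enzyme wells; top concentration of the series not given in the record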
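Fluorescence-quenching assay: 15 nM Sfp-PPTase preincubated 15 min at room temperature with compound, then 5 uM rhodamine-CoA and 12.5 uM BHQ-2-labelled YbbR peptide added. Fluorescence (ex 525/em 598 nm) read at start and after 30 min; difference gives rate.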
The depositor's hits bear a star; ? = inconclusive; & = joins results of further samples; [ ] = dose if it differs, or a comment. A portion of the library; count on the stated rates, not on these rows.

| item | molecule | Menin-MLL FL inh | Sfp inh |
| --- | --- | --- | --- |
| 1 | CC(C)C[C@H](NC(=O)[C@H](Cc1cnc[nH]1)NC(=O)[C@@H](N)Cc1cnc[nH]1)C(=O)NCC(=O)NCC(=O)N[C@@H](C)C(=O)N[C@@H](CCCCN)C(=O)N[C@@H](CCC(N)=O)C(=O)N[C@@H](C)C(=O)NCC(=O)N[C@@H](CC(=O)O)C(=O)N[C@H](C(=O)O)C(C)C | 0.2 | 20% |
| 2 | NCCCNCCCCNCCCNC(=O)CCc1ccc(O)cc1 | -2.1[11.7 µM] | -9% |
| 3 | Cc1ccc(F)c(C2C3C=CCC(c4ccccc4)C3C(=O)N2Cc2ccccc2)c1 (stereo unspecified) | 0.6 | -6% |
| 4 | Cc1ccc(C(=O)[C@@H]2[C@H]3C4COC(O4)C(=O)[C@@H]3[C@H]3C=Cc4ccccc4N32)cc1 (stereo partly specified) | 21 | -28% |
| 5 | C[C@]1(C(=O)NCC2CC2)C=C[C@@H](Cc2ccccc2)N1C(=O)c1ccccc1 | 0.1 | -3% |
| 6 | C=C1C(N)CC2CC1C2(C)C (stereo unspecified) | -2.9 | 13% |
| 7 | O=c1c(-c2cccc(Cl)c2)nc2cncnc2n1Cc1ccccc1Cl | 9.4 | ? |
| 8 | O=Nc1c(O)[nH]c2c(Cl)c(Cl)ccc12 | -3.4 | -17% |
| 9 | c1ccc(-c2nc(-c3ccccc3)c(NC3CCCCC3)o2)cc1 | 0.7 | 15% |
| 10 | O=C(NCCN1CCCCC1)c1ccc(I)cc1 | -19 | 29%&3% |
| 11 | C=C1CC[C@H](O)C/C1=C/C=C1\CCC[C@]2(C)[C@H]1CC[C@H]2[C@@H](C)/C=C\[C@@H](C)C(C)C | 14[24.8 µM] | ? |
| 12 | COC(=O)[C@@]1(Cc2ccc(OC)cc2)[C@H]2c3cc(C(=O)N(C)C)n(Cc4ccc(C)c(F)c4F)c3C[C@H]2CN1C(=O)c1ccccc1 | 3.0 | -15% |
| 13 | CCC[C@@H]1C[C@@]1(CCC)C(NC(=O)OCc1ccccc1)c1ccc(-c2ccccc2)cc1 (stereo partly specified) | 5.3 | 23% |
| 14 | CCCCCCCCCCCCCc1ccco1 | -0.3 | -1% |
| 15 | CCCOc1ccc(Br)cc1-c1cc(-c2ccc(Cl)cc2)[nH]c1-c1ccncc1 | -1.7 | 39%[activator] |
| 16 | COc1ccc(-c2nc3cnc(Nc4cccc(OC)c4)nc3n(C3CC3)c2=O)cc1 | ? | 4% |
| 17 | C[C@@H]1OC(Oc2ccccc2-c2cc(=O)c3c(O)cc(O)c([C@@H]4O[C@H](CO)[C@@H](O)[C@H](O)[C@H]4O)c3o2)[C@H](O)[C@H](O)[C@H]1O (stereo partly specified) | -0.2 | 16% |
| 18 | Cc1ccc(-n2c(C)c([N+](=O)[O-])c3ccc(O)cc32)cc1 | 0.8 | 18µM* |
| 19 | COC(=O)C1=C(C(=O)OC)[C@@H]2N(C)c3ccc(OC)cc3[C@@]23C[C@@H](C(=O)OC)N(S(=O)(=O)c2ccc(Br)cc2)C3=N1 | 5.1[11.7 µM] | 13% |
| 20 | O=C(c1csnn1)N1CCC2(CC1)CN(c1ccccn1)C2 | -13 | 7% |
| 21 | COC(=O)[C@H](Cc1ccccc1)NC(=O)C/C=C\[C@@H](C)[C@@H](CO)OC | 0.7[11.7 µM] | 8% |
| 22 | C[C@@H]1CC[C@H]2C(=O)NC[C@@H](O)CN2[C@@H]1c1ccc(Br)cc1 | 1.3[11.7 µM] | 5% |
| 23 | CCCCC[C@H](O)/C=C/C=C\C/C=C\C=C\[C@@H](O)CCCC(=O)O | -1.7 | 10% |
| 24 | COC(=O)N1CCc2cc(OC)c(OC)cc2C1Cc1ccc(OC)cc1 (stereo unspecified) | -4.3[11.7 µM] | 20% |
| 25 | O=C(c1cnccn1)N1CCC[C@@]2(CCN(c3cccc(-c4ccccc4)c3)C2)C1 | 8.9 | -26% |
| 26 | Cc1cc([C@](C)(N)C(=O)O)ccc1P(=O)(O)O | -9.5 | -7% |
| 27 | COc1cccc(Cn2c(=O)c(-c3ccc(Cl)cc3)nc3cnc(N4CCN(C)CC4)nc32)c1 | -17 | 16% |
| 28 | COC(=O)N1CCC2(CCCN(Cc3ccccc3OC)C2)CC1 | -3.5 | 13% |
| 29 | Nc1c(O)cccc1C(=O)C[C@@H](N)C(=O)O | -5.0[24.8 µM] | -24% |
| 30 | CC(C)C[C@@H](CC(=O)N[C@@H](CCC(=O)O)CC(=O)O)NC(=O)[C@@H]1CNCC[C@H]1NC(=O)C[C@H](CCCN)NC(=O)C[C@H](Cc1ccccc1)NC(=O)[C@@H]1CNCC[C@H]1N | -4.7 | -1% |
| 31 | CN(C)C(=O)c1ccc(-c2cc(NCc3cccs3)ncn2)cc1 | 1.0 | -7% |
| 32 | CC(=O)Nc1ccc(SCC(CC(C)C)N2CCN(C)CCC2=O)cc1 (stereo unspecified) | -8.7 | 19% |
| 33 | COc1ccc2c(=O)c(CC(=O)O)coc2c1 | -3.6 | 16% |
| 34 | COc1cccc(Cn2c(=O)cnc3cnc(Nc4ccccc4)nc32)c1 | ? | -3% |
| 35 | CC(=O)N1CCC2(CC1)CN(c1cccc(-c3ccccc3)c1)C2 | 1.0 | ? |
| 36 | COCO[C@H]([C@@H](C)C=C(Br)Br)[C@@H](C)COCc1ccc(OC)cc1 | -5.6 | -5% |
| 37 | CC(C)c1c(O)ccc2c1CCC1C(C)(C)CCC[C@@]21C (stereo partly specified) | 5.2 | 5% |
| 38 | COc1ccc(-c2nnc3n2N=C(c2c(OC)cccc2OC)CS3)c(OC)c1 | -0.7 | 3% |
| 39 | CCCNC(=O)OC[C@@H]1O[C@H](CCO/N=C(\C)CCC(=O)OC[C@@H]2O[C@H](C#Cc3ccccc3)C=C[C@@H]2Oc2ccc(C)cc2)C=C[C@@H]1Oc1ccc(OC)cc1 | -3.3[11.7 µM] | 17% |
| 40 | CC(C)CC(CSc1ccc(Br)cc1)N1CCN(CCc2ccccc2)CCC1=O (stereo unspecified) | -1.2 | -4% |
| 41 | COC(=O)CCCC1=CC2=C(c3ccccc3)C(=O)C(C)(OC(=O)C3CCCC3)C(=O)C2=CN1Cc1ccccc1 (stereo unspecified) | 3.8[11.7 µM] | -4% |
| 42 | CC(=O)N1CC=CC1(CC(C)C)C(=O)NCc1ccc(C)o1 (stereo unspecified) | 0.6 | 45µM* |
| 43 | COc1ccc2c(c1)O[C@H](c1ccc3c(c1)OCO3)[C@@H](OC(=O)Nc1ccc(C)c(Br)c1)C2=O | 0.3 | -2% |
| 44 | O=c1c(-c2cccs2)nc2cncnc2n1Cc1ccccc1 | ? | 11% |
| 45 | C/C=C/c1ccc2oc(-c3ccc(O)cc3)c(C)c2c1 | 1.3 | 16% |
| 46 | COC(=O)c1ccc(C(NC(=O)OCc2ccccc2)/C(C)=C/[C@@H](C)C(=O)NCCO)cc1 (stereo partly specified) | -1.3 | 1% |
| 47 | C=C(C)C(=O)c1cccs1 | -6.0 | -5% |
| 48 | CC[C@]1(c2ccccc2)NC(=O)N(C)C1=O | -0.2[24.8 µM] | 7% |
| 49 | CCC1(c2ccc(O)cc2)NC(=O)N(C)C1=O (stereo unspecified) | 0.7 | 14% |
| 50 | CC(=O)OC[C@@H]1O[C@H](C/C=N\O[C@@H](C)c2cc(-c3c(C)cc(C)cc3C)no2)C=C[C@@H]1OC(C)=O | -0.9[11.7 µM] | 10% |
| 51 | COc1cc(=O)n(C)c2c(OC[C@@H](O)C(C)(C)O)cccc12 | -2.6[24.8 µM] | 11% |
| 52 | CC(C)C[C@@H](CC(=O)N[C@@H](CCC(=O)O)CC(=O)O)NC(=O)[C@@H]1CNCC[C@H]1NC(=O)C[C@H](CCCN)NC(=O)C[C@H](CO)NC(=O)[C@@H]1CCCC[C@H]1N | 0.8 | -2% |
| 53 | COc1ccc(C(=O)c2ccccc2)c(O)c1O | -9.3 | 56µM* |
| 54 | CCCCc1nc2c(c3c1C[C@H](C)OC3)CN(C(=O)Cc1cccs1)CC2 | 0.2[11.7 µM] | 5% |
| 55 | Cc1ccc(S(=O)(=O)Nc2cc(S(=O)(=O)c3ccc(C)cc3)c(O)c3cccnc23)cc1 | 0.9 | -21% |
| 56 | CC(C)(C)OC(=O)NC(Cc1ccccc1)C(O)c1ccco1 (stereo unspecified) | -0.4 | 2% |
| 57 | CCCCC[C@H](O)/C=C/C=C/C=C/[C@H](O)C/C=C\CCCC(=O)O | 0.1 | 4% |
| 58 | CC(C)=CCC/C(C)=C/CO/N=C1/[C@H]2O[C@@H]2[C@@H](O)[C@H]2[C@H]1CCn1c(=O)n(Cc3cc4c(cc3Cl)OCO4)c(=O)n12 | -0.4[11.7 µM] | 23% |
| 59 | CC(C)(C)OC(=O)NCCCC1=CC2=CC(=O)C(C)(OC(=O)c3ccc(Cl)nc3)C(=O)C2=CO1 (stereo unspecified) | ? | -2% |
| 60 | FC(F)(F)c1ccccc1-c1nc(NCc2cccs2)c2ccccc2n1 | 1.0 | 29% |

Other results:
entry	canonical_smiles	Menin-MLL FL inh	Sfp inh
61	COc1ccc(NC(=O)c2cc(OCCCN(C)C)nn2Cc2ccccc2)cc1	0.0	-16%
62	CCc1c(C)[nH]c2c1C(=O)[C@H](CN1CCOCC1)CC2	-0.2[24.8 µM]	?
63	COc1ccc(-c2nc3cnc(Oc4cccc(Cl)c4)nc3n(C[C@H]3CCCO3)c2=O)cc1	3.5	2%
64	CCC(=O)OC1CCC2C3CCc4cc(O)ccc4C3CC[C@]12C (stereo partly specified)	4.6	-8%
65	COc1ccc(SCC(c2ccccc2)N2CCN(CC(C)C)CCC2=O)cc1 (stereo unspecified)	-4.1	-8%
66	CC(C)C[C@H](NC(=O)[C@H](Cc1ccccc1)NC(=O)CNC(=O)CNC(=O)[C@@H](N)Cc1ccc(O)cc1)C(=O)N[C@@H](CCCN=C(N)N)C(=O)N[C@@H](CCCN=C(N)N)C(=O)N[C@@H](CCC(N)=O)C(=O)N[C@@H](Cc1ccccc1)C(=O)N[C@@H](CCCCN)C(=O)N[C@H](C(=O)N[C@H](C(=O)N[C@H](C(=O)O)[C@@H](C)O)C(C)C)C(C)C	-2.2	-16%&26%
67	CO[C@H]1COC(=O)[C@@H](C)COC(=O)[C@H](C)NC(=O)C/C=C\[C@H]1C	1.0[11.7 µM]	8%
68	CC(C)=CCC/C(C)=C/CC/C(C)=C/CC/C(C)=C/CC/C(C)=C/CC/C(C)=C/CC/C(C)=C/CC/C(C)=C/CC/C(C)=C/CO	1.1&-1.8	-2%&3%
69	O=NN(CCCl)C(=O)NC1CCCCC1	-8.3	11%
70	c1nc(N2CCNCC2)c2cc(-c3ccoc3)ccc2n1	12	0%
71	CN(C)c1ncc2nc(CCc3ccccc3)c(=O)n(C[C@H]3CCCO3)c2n1	0.1	-23%
72	COCC(=O)N1CCC2(CCN(Cc3nccs3)CC2)CC1	2.4	28%
73	O=C(Oc1ccccc1)N1CCC2(CC1)CCN(c1ncccn1)CC2	-1.4	-7%
74	CC[C@@]1(c2ccccc2)NC(=O)N(C)C1=O	4.0	15%
75	C=C1CCN(C(CC(C)C)C(=O)Nc2nc3ccc(Cl)cc3s2)S(=O)(=O)c2ccccc21 (stereo unspecified)	7.2	4%
76	C=C(C)C(O)/C=C/c1ccc(OC)cc1 (stereo unspecified)	5.7[11.7 µM]	-7%
77	Cc1noc(C)c1C(=O)N1CCC2(CCCN(C(=O)NC(C)C)C2)CC1	3.6	23%
78	Cc1c2c(nc3ccccc13)-c1cccc(=O)n1C2	-6.4	10%
79	CC(=O)N1CC[C@@H]2CC(=O)CC[C@@H]21	-5.6[138 µM]	-3%
80	COC(=O)[C@@]1(Cc2ccc(OC)cc2)[C@H]2c3cc(C(=O)N(C)C)n(Cc4cccc5ccccc45)c3C[C@H]2CN1C(=O)c1ccccc1	9.4	13%
81	CC1CCC2C(=O)OC(CN=[N+]=[N-])CN2C1c1ccc(Br)cc1 (stereo unspecified)	-3.2&3.1&-1.7&3.0&0.5&0.5[11.7 µM]	1%&1%&9%&-4%&12%&6%
82	COc1ncc2nc(C)c(=O)n(-c3ccccc3)c2n1	-2.9	18%
83	COc1ncc2nc(-c3cccs3)c(=O)n(-c3ccccc3)c2n1	?	-28%
84	CCCc1c(OCC(O)COc2ccc3c(=O)cc(C(=O)O)oc3c2CCC)ccc(C(C)=O)c1O (stereo unspecified)	5.9&-0.8	-7%&-8%
85	Cc1nc2cnc(OCc3ccccc3)nc2n(CCc2ccccc2)c1=O	1.1	?
86	Cc1[nH]c(=O)c(C#N)cc1-c1ccc2nccn2c1	0.7&-6.2	-3%&-6%
87	COc1cccc(Cn2c(=O)c(-c3ccccc3)nc3cnc(N4CCN(C)CC4)nc32)c1	-3.0	-4%
88	CCCCC/C=C\C[C@@H](O)/C=C/C=C\C/C=C\CCCC(=O)O	3.4	5%&5%
89	COc1cc(N)c(Cl)cc1C(=O)OCCN1CCCCC1	3.3&2.2	-3%

Screening results: PubChem BioAssay, National Center for Advancing Translational Sciences (NCATS)
